# Rango-impB inh – prevents formation of the Rango-importin beta complex; Q14974; Rango CFP/YFP FRET sensor + importin beta, 45 min; Potency, µM (highest dose often 92.2 µM), for the others: at the top dose inhibition of complex formation; 340,000 compounds, 0.031% hits; AID 540263; active = rising FRET ratio curve, often small or poorly fitted; inconclusive = mostly compound fluorescence or quenching in the first reads; inactive = flat curves in all reads;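 note: potency is the fitted concentration of half-maximal effect; 0% = DMSO wells and 100% = buffer wells lacking importin beta; nearly all actives have a fitted effect of over 15% in size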
#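 FRET biosensor Rango (snurportin 1 IBB between N-terminal EYFP and C-terminal Cerulean), 50 nM in PBS/1 mM DTT/0.02% Tween-20/0.1% BSA, preincubated 5 min RT with compound; 0.125 microM importin beta added, 45 min RT, CFP/YFP FRET ratio read.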
# GLA inh pH 4.5 – alpha-galactosidase A (human) inhibition, pH 4.5 | purified enzyme, 4-MU-alpha-Gal fluorescence, pH 4.5 | activity change, negative = inhibition, % at 105 µM | P06280 | 230,000 tested, under 10 active; inconclusive = small, poorly fitted or top-dose-only inhibition, or a rising curve; inactive = flat fitted curve, though single readings scatter; no compound was filed as active;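 note: 0% = full activity with enzyme and -100% = basal without enzyme; dose as in the result columns while the protocol names 77 µM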
# Target sequence (P06280 whole entry, looked up): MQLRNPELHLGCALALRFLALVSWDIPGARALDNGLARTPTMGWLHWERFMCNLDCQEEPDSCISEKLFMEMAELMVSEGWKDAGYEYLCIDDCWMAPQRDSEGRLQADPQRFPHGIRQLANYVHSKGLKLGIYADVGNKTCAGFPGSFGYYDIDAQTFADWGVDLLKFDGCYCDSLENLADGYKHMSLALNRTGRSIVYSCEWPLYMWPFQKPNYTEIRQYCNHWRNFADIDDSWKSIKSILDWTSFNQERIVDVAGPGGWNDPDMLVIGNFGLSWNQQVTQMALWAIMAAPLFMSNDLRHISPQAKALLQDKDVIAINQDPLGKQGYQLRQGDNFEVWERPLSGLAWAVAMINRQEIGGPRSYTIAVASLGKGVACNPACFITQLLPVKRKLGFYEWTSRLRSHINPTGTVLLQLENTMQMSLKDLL
# miR-21 FLuc – raises the signal of a miR-21 reporter. Potency, µM (titrated, usually from 38.3 µM), for the others: top-dose reporter change, positive = more light. HeLa miR-21 FLuc reporter, luciferase, 48 h. 340,000 tested, under 10 active; active = well fitted rising curve with a large enough effect; inconclusive = small, poorly fitted or top-dose-only effect; inactive = no such curve, though single readings can be large or run the other way;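 note: % of control where 0% means no effect; miR-21 action dims this reporter so a rising signal means less miR-21 action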
#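 HeLa cells stably expressing CMV-driven firefly luciferase with a downstream miR-21 binding sequence, endogenously expressing miR-21, were treated with titrations (up to about 40uM final) for 48 hours at 37 degree Celsius. Luciferase luminescence was read after lysis.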
# Rango dissoc inh – inhibitors of RanGTP-induced Rango-importin beta complex dissociation | O95149+P62826 | Biochemical FRET Rango-importin beta, RanGTP-induced dissociation | Potency, µM (highest dose often 46.1 µM), for the others: at the highest dose activity change, negative = inhibition | 340,000 compounds, 0.071% hits | AID 540253; active means falling FRET ratio curve, often poorly fitted, with flat reads before Ran was added; inconclusive means other falling curves, or compound fluorescence or quenching; inactive means flat or rising ratio curve;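 note: potency is the fitted concentration of half-maximal effect; % of control where 0% means no effect; nearly all actives have a fitted effect of over 45% in size; -100% = wells without RanGTP and RCC1; the record marks most hits as doubtful in a second field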
#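 Compounds preincubate 5 min with complex of recombinant Rango and importin beta in PBS with 1 mM DTT. Ran (0.6 uM) loaded with 2 mM GTP plus 0.2 uM RCC1 starts dissociation; FRET is recorded 45 min later.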
# * = called active by the depositor; ? = inconclusive; nt = not tested or not shown; & = joins results of further samples. Some of the compounds tested, so the mix of outcomes need not match the whole.
SMILES,Rango-impB inh,GLA inh pH 4.5,miR-21 FLuc,Rango dissoc inh
O=C(Nc1ccc(Cl)cc1)c1cccc(N2C(=O)C3C4CCC(C4)C3C2=O)c1 (stereo unspecified),-3.4%,4.6,16.5%,1.2%
COc1cc(NC(=O)c2ccc(Cl)cc2)c2ncccc2c1,-7.1%,nt,-0.4%,0.7%
O=Cc1ccc(OCc2nnc(-c3ccccc3Br)o2)cc1,1.1%,nt,-36.0%,0.7%
CC1CN(S(=O)(=O)c2ccc(F)cc2)CN1C(=O)N1CCOCC1 (stereo unspecified),4.5%,nt,-1.7%,0.0%
Cn1ccnc1SCC(=O)Nc1nc2ccccc2s1,6.5%,1.1,-43.2%,-14.2%
CCOC(=O)N1CCN(CC(O)COc2ccc(C)c(C)c2)CC1 (stereo unspecified),0.6%,nt,-0.7%,0.5%
CCCNC(=O)c1ccc2c(c1)C1C3CCC(C3)C1C(c1ccccc1)N2 (stereo unspecified),3.5%,-12.2,16.6%,-4.3%
COc1ccccc1CN(C)C(=O)c1ccccc1SCC(=O)N1CCCC1,-1.1%,nt,nt,-2.5%
c1ccc2c(-c3cncc4ccccc34)cncc2c1,-0.7%,nt,nt,1.0%
CCOc1ccc(-c2nc(C#N)c(N3CCCCCC3)o2)cc1,-2.4%,-2.0,-14.6%,18.4%
CC[C@]12c3[nH]c4ccc(OC)cc4c3CCN1C(=O)C(CC(=O)NCc1ccco1)C[C@@H]2C(=O)N1CCN(C(=O)c2ccco2)CC1 (stereo partly specified),0.6%,nt,nt,28.7%
O=C(COC(=O)Cn1nnc(-c2ccccc2)n1)Nc1cc(F)ccc1F,0.9%,nt,nt,2.1%
O=C(CNC(=O)C1CCCCC1)OCC(=O)c1ccc(Br)cc1,0.4%,nt,-9.5%,1.5%
COc1ccccc1N1C(=O)C2C(c3ccc(F)cc3)NN(C(=O)c3ccc(C)cc3)C2C1=O (stereo unspecified),0.2%,-3.4,3.3%,0.5%
Cc1ccc(CN2CCN(C(=O)CCc3ccccc3)CC2)cc1,-3.1%,nt,0.0%,-20.6%
O=[N+]([O-])c1cccc(C2=NC(c3ccccc3)CO2)c1 (stereo unspecified),0.8%,-2.5,-22.8%,4.8%
COc1ccc(CNc2nc(NCc3ccc(OC)cc3)c3[nH]cnc3n2)cc1,-1.1%,-7.2,22.8%,11.9%
COc1ccccc1CC(=O)N1CCC(CCC(=O)NC2CC2)CC1,0.0%,nt,1.5%,10.2%
CC1CC(C)CN(C(=O)COC(=O)Cc2ccc(Br)cc2)C1 (stereo unspecified),4.2%,nt,-2.0%,-5.5%
O=C(NCc1ccccn1)c1cc(S(=O)(=O)N2CCCCCC2)ccc1Cl,-0.2%,nt,1.1%,0.8%
COc1cc2ccccc2cc1C(=O)Nc1ccncc1,3.4%,nt,nt,-14.0%
COc1ccc(CCNC(=S)Nc2ccc(S(=O)(=O)Nc3ncccn3)cc2)cc1OC,-0.1%,nt,-7.0%,20.9%
CCOCC(=O)Nc1nnc(COc2ccc(Cl)cc2)s1,-3.6%,7.4,-12.6%,9.0%
O=C(CSc1nnc(-c2ccncc2)n1Cc1ccccc1)NC1CCCCC1,-0.5%,1.1,-0.9%,-14.6%
O=C(NCc1ccccc1)C1(C(F)(F)F)CC(CCCO)CCCO1 (stereo unspecified),-0.3%,nt,nt,-1.1%
CCOc1cc(C(=O)NCCCn2ccnc2)cc(OCC)c1OCC,-1.5%,6.3,-2.0%,12.7%
COc1ccc(-c2cc(CNS(=O)(=O)c3ccccc3)on2)cc1,-0.9%,-7.3,-6.5%,2.4%
CCCCn1c(=O)[nH]c(=O)c2c1nc(-c1ccsc1)n2Cc1ccccc1,-1.1%,5.7,-2.8%,0.8%
O=C1NC(=O)c2cc(NC(=O)c3cccc4ccccc34)ccc21,0.5%,nt,4.7%,3.7%
COc1ccccc1C(=O)NCCC(=O)Nc1ncccc1C,-1.3%,nt,-4.6%,-1.9%
CCOC(=O)C/C(C)=N/NC(=O)COc1ccccc1C,-1.3%,-0.2,-7.0%,-1.1%
Cc1c[nH]c(=O)c([N+](=O)[O-])c1,-4.1%,-3.2,1.8%,-1.8%
Cc1onc(-c2ccccc2)c1C(=O)N/N=C/C(Br)=C/c1ccccc1,1.6%,-31.3,2.9%,4.0%
COc1ccc(-c2nc(NC(=O)c3[nH]c(C)c(C(C)=O)c3C)sc2C)cc1,?,-2.1,-2.6%,?
OC(COc1cccc2ccccc12)CN1CCN(c2ccc(Cl)cc2)CC1 (stereo unspecified),0.2%,3.2,0.7%&-0.3%,-4.6%
COc1cc(-c2nnn(CC(=O)N3CCOCC3)n2)cc(OC)c1OC,-0.9%,2.0,0.8%,0.2%
CC1CCCN(c2nc3c(c(=O)[nH]c(=O)n3C)n2CCSc2ncccn2)C1 (stereo unspecified),nt,8.6,-5.1%,nt
CCCCOC(=O)CSc1nc2ccccc2o1,1.9%,-1.8,3.9%,-8.0%
CC(Oc1cccc(Cl)c1)C(=O)Nc1ccccc1N1CCCCC1 (stereo unspecified),-1.1%,nt,nt,-15.1%
O=C(CN(Cc1ccccc1Cl)C(=O)c1ccc(CN2CCOCC2)o1)NCC1CCCO1 (stereo unspecified),-2.8%,-21.5,0.4%,2.8%
Cc1cc(C)cc(-n2ncc3c2CCCC3NC(=O)CCN2CCCC2=O)c1 (stereo unspecified),2.1%,nt,-10.2%,-27.0%
CC(=O)c1cccc(OCC(=O)OCC(=O)Nc2cc(S(=O)(=O)N3CCCCC3)ccc2C)c1,-1.8%,nt,nt,-2.1%
CNc1ccccc1C(C)(C)c1cn(-c2ccc([N+](=O)[O-])cc2)nn1,-0.8%,nt,0.1%,5.0%
O=C(NCC1CCN(Cc2ccccc2Cl)CC1)Nc1cccc(Cl)c1,-1.4%,-11.7,3.7%,-9.8%
CCCC1=C(C(=O)OCC)C(c2ccc(OC)c(CSc3ccccn3)c2)C(C#N)=C(N)O1 (stereo unspecified),?,2.8,-11.5%,-12.6%
COCCNC(=O)/C(C#N)=C/c1ccc(-c2ccc(S(=O)(=O)N3CCOCC3)cc2)o1,?,-2.1,0.8%,?
CC(SCc1ccccc1)C(=O)N/N=C/c1ccc(OCC(=O)NCc2ccco2)cc1 (stereo unspecified),-0.8%,-9.9,12.3%,16.1%
N#C/C(=C\c1ccc(N2CCCCC2)c([N+](=O)[O-])c1)c1nn(-c2ccccc2)c(N)c1C#N,0.2%,-22.4,-5.3%,2.5%
COc1ccc(-c2cnnn2-c2ccc(NC(=O)c3ccco3)cc2)cc1OC,-2.8%,-3.2,-35.1%,-1.3%
COc1cc(C(=O)Nc2cc(Cl)ccc2C)c(-n2cnnn2)cc1OC,0.5%,-28.3,-7.6%,15.6%
COc1ccc(C2C=C(c3ccc(C)c(C)c3)Nc3ncnn32)c(OC)c1OC (stereo unspecified),?,-7.8,11.6%,?
Cc1cc(C(C)(C)C)ccc1Oc1cccc2c1S(=O)(=O)N(C1CCCC1)CC(COCc1ccccc1)O2 (stereo unspecified),0.1%,nt,nt,-14.0%
O=C1CC(N2CCc3ccccc32)C(=O)N1c1ccc(F)cc1 (stereo unspecified),0.1%,8.3,-26.3%,24.9%
Cc1cnc(C(=O)N2CCN(S(=O)(=O)c3ccc(F)c(F)c3F)CC2)cn1,3.1%,nt,nt,-0.9%
COc1ccc(/C=C/CN2CCN(Cc3ccc(F)cc3)C(CCO)C2)cc1 (stereo unspecified),0.2%,-19.3,0.1%,-1.4%
COc1ccc(S(=O)(=O)N(CC(=O)N2CCN(c3ccccc3)CC2)c2ccccc2)cc1,-5.1%,6.3,-1.0%,-1.0%
CCCCNC(=O)c1onc(CSc2ccc(C)c(C)c2)c1C(=O)O,-1.4%,-2.2,-3.3%,0.4%
O=C(NCCc1ccccc1)c1ccc2c(c1)OCCCO2,0.8%,nt,?,-12.7%
CCOC(=O)CC(NC(=O)c1cccc2c1C(=O)N(Cc1cccnc1)C2)c1ccc(OCC)c(OC)c1 (stereo unspecified),-0.4%,3.1,-9.1%,5.2%
Cc1c(C(=O)NCc2ccc3c(c2)OCO3)oc2ccccc12,7.3%,0.8,-22.1%,-14.2%

# Gathered by group, those above containing two or more sulfur atoms
SMILES,Rango-impB inh,GLA inh pH 4.5,miR-21 FLuc,Rango dissoc inh
Cn1ccnc1SCC(=O)Nc1nc2ccccc2s1,6.5%,1.1,-43.2%,-14.2%
COc1ccc(CCNC(=S)Nc2ccc(S(=O)(=O)Nc3ncccn3)cc2)cc1OC,-0.1%,nt,-7.0%,20.9%

# (list continues)
SMILES,Rango-impB inh,GLA inh pH 4.5,miR-21 FLuc,Rango dissoc inh
CC(C)(C)c1ccc2c(c1)OC(C(=O)N/N=C\c1ccc(-c3cccc(C(=O)O)c3)o1)CO2 (stereo unspecified),?,-23.0,-41.5%,-27.0%
CCCN(CCC)C(=O)Cn1ccc(=N)c2ccccc21,-2.7%,0.8,2.4%,-3.5%
CCc1ccc(-c2c(C)sc(NC(C)=O)c2C(N)=O)cc1,0.5%,1.0,-0.8%,5.9%
Cc1n[nH]c(C)c1CCNC(=O)C1CCC(=O)N(Cc2ccccc2F)C1 (stereo unspecified),-3.7%,nt,-2.5%,22.3%
Cc1cc(C)c(N(C(=O)CN2C(=O)c3ccccc3S2(=O)=O)C(C(=O)NCC2CCCO2)c2ccc(F)cc2)c(C)c1 (stereo unspecified),-0.4%,-14.3,-0.5%,3.9%
Cc1ccc(-c2nc(CS(=O)(=O)CC(=O)N3CCOCC3)c(C)o2)cc1,1.6%,nt,0.4%,3.1%
C=CCn1c(-c2sc(-c3ccccc3)nc2C)n[nH]c1=S,?,-23.1,-0.4%,-2.9%
COc1ccc(C2C(C(=O)c3cccs3)=C(O)C(=O)N2c2cccc(C)n2)cc1 (stereo unspecified),?,-4.3,-12.6%,-7.9%
COc1ccc(Nc2cc(C(=O)NCc3ccccn3)c3ccccc3n2)c(OC)c1,nt,-7.8,-0.8%,nt
Cc1ccc(C(=O)NC(=S)NCc2ccco2)cc1,1.2%,-5.6,-35.9%,-10.5%
Cc1cc(OCCN2CCCC2)cc(C(C)C)c1,3.6%,-3.4,-10.5%,6.6%
Cc1ccc(C2CC(=O)C=C(NCc3ccccc3)C2)cc1 (stereo unspecified),1.3%,-8.5,25.1%,9.0%
O=C(Cn1cnc([N+](=O)[O-])n1)c1ccccc1,0.4%,nt,2.6%,4.0%
C=CCc1cc(CN2CC(C)OC(C)C2)c(O)c(OC)c1 (stereo unspecified),6.0%,nt,nt,-10.5%
CC(=O)c1cccc(OCc2cc(C(=O)N3CC4C[C@@H]5CC3C[C@H](C4)C5)no2)c1,-0.2%,nt,9.2%,-2.0%
CN(C(=O)c1ccc(Cl)cc1)C1CCS(=O)(=O)C1 (stereo unspecified),-2.8%,nt,nt,14.7%
Cc1cccc(N2CCN(C(=O)c3ccccc3OCc3c(C)noc3C)CC2)c1C,5.1%,nt,nt,13.6%
O=C(NCCC(=O)N1CCN(S(=O)(=O)c2ccc(Cl)cc2)CC1)Nc1ccccc1,-2.4%,nt,nt,-10.9%
Cc1ccn2cc(-c3ccc4c(c3)NC(=O)CO4)nc2c1,-3.8%,0.4,-39.1%,-6.1%
O=C(Nc1ccccc1)Nc1cc(S(=O)(=O)N2CCOCC2)ccc1N1CCCC1,-0.3%,14.1,-0.3%,24.7%
CC(C)CNC(=S)Nc1ccc(F)cc1,2.6%,-16.2,-0.7%,0.0%
Cc1sc(NC(=O)c2ccco2)c(CN2CCN(c3ccccn3)CC2)c1C,-0.1%,-5.0,22.4%,-15.1%
COc1ccc(-c2cc(-c3ccco3)[nH]c(=O)c2C#N)cc1,?,?,2.4%,-18.8%
O=C(NCc1ccccn1)c1ccc(NS(=O)(=O)c2cccc([N+](=O)[O-])c2)cc1,5.7%,nt,nt,6.8%
Cc1ccccc1CN(c1ccc(C(=O)Nc2ccccc2C(=O)N2CCCC2)cc1)S(C)(=O)=O,-5.5%,-1.2,1.2%,1.0%
